Ecoli growth = E. coli growth inhibition. Escherichia coli growth, OD600, 23 h; hits give low values. actives 0.21% (n = 330,000). OD600 absorbance (test concentration not listed);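 active = OD600 absorbance below the run mean of sample wells minus 3.6 SD, in any replicate, cut at about 0.56 in these data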;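 note: stock transfer was 300 nL into about 60 µL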
HNF4A DNA FP = change in binding of human HNF4 alpha to DNA; HNF4a-FITC DNA binding, fluorescence polarization, 1 h; activity change, % at 10 µM; actives 0.3% (n = 360,000); in the data active = activity change above about 30%, passing the limit was not always enough;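 note: controls were the assay level and a saturating level of protein; the project sought stronger binding though the title names inhibitors; some compounds called inactive have numbers as strong as hits; positive values seem to mean higher polarization but the record does not say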
Target sequence (P41235 whole entry, looked up): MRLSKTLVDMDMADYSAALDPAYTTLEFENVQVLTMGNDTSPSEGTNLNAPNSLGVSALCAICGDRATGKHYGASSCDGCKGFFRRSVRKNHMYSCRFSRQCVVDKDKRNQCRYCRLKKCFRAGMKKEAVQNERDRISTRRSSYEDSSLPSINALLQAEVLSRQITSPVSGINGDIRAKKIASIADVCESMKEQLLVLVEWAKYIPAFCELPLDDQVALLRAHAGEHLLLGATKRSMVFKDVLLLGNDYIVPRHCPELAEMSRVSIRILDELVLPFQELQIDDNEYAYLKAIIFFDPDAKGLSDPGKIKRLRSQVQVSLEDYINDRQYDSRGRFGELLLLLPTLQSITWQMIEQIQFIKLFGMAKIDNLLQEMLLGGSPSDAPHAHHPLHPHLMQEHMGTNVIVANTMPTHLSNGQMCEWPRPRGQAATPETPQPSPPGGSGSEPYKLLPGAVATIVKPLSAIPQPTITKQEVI
ALR H2O2 inh = human ALR oxidase inhibition via reduced H2O2. P55789. purified ALR, DTT oxidation, H2O2 HRP-luminol luminescence. inhibition, % (concentration not given with the values). actives 3.8% (n = 290,000). AID 485317;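 active = mean and each replicate at 75% or more; inconclusive = only one of the two met; inactive = neither met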;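 note: stock transfer was 7.5 nL into about 7.5 µL; 0% = neutral wells and 100% = wells with inactivated enzyme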
Ecoli rRNA inh = inhibits bacterial ribosomal RNA function over humanized ribosomes. E. coli WT GFP vs humanized-ribosome RFP mutants, fluorescence, 24 h; hits give low values; DMSO median 0, no signal -100. GFP signal change (wild-type ribosome), % (no concentration beside the values). actives 1.6% (n = 350,000). AID 720706;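 active = significant combined selectivity score with lowered wild-type GFP, culture density cut under 30%, mutant RFP and density less affected; inactive = any of these conditions unmet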; note: one replicate is shown; some compounds called inactive have numbers as strong as hits
FGF22 binding = shifts melting point of recombinant human FGF22 | Q9HCT0 | recombinant FGF22 thermal shift, SYPRO orange fluorescence; percent of sucrose octasulfate shift, DMSO zero | calls only at 9.99 µM | actives 1.5% (n = 340,000) | AID 651658;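 active = melting point raised past a set limit in the mean and every replicate; inconclusive = no clear call; three in four hits are not shown here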
Vif TR-FRET = inhibitors of Vif binding to APOBEC3G peptide, primary screen, biochemical, TR-FRET, GST-Vif 1-94, biotin-A3G peptide, dose response retest (AID 1117319); TR-FRET GST-Vif / biotin-A3G peptide binding; higher % means a stronger effect; test concentration not given here; strong numbers were not always called active; inhibition, %, or IC50 in µM where a hit was titrated; actives 0.57% (n = 260,000);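 active = above the screen mean plus three standard deviations and confirmed in dose response; inconclusive = results disagree or hit not tested in dose response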;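 note: Vif residues 1-94 fused to GST binding biotinylated APOBEC3G peptide 110-148; 0% = full assay without inhibitor and 100% = GST in place of GST-Vif; retest series ran down from 100 µM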
MLL AF4-AF9 inh = MLL-AF4/AF9 protein interaction inhibition; AlphaScreen, biotin-AF4 peptide binding to FLAG-AF9; P42568; actives 0.47% (n = 350,000); AID 651704; inhibition, % at 10 µM;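 active = every replicate reaching a set inhibition limit, whatever the replicate mean, cut at about 25% in these data; inconclusive = mean inhibition reaches that limit but some replicates miss it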;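 note: 0% = plate neutral control median and 100% = total signal loss; the record names both 10 and 1 µM as test concentration; the first replicate is given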
Target sequence (P42568 whole entry, looked up): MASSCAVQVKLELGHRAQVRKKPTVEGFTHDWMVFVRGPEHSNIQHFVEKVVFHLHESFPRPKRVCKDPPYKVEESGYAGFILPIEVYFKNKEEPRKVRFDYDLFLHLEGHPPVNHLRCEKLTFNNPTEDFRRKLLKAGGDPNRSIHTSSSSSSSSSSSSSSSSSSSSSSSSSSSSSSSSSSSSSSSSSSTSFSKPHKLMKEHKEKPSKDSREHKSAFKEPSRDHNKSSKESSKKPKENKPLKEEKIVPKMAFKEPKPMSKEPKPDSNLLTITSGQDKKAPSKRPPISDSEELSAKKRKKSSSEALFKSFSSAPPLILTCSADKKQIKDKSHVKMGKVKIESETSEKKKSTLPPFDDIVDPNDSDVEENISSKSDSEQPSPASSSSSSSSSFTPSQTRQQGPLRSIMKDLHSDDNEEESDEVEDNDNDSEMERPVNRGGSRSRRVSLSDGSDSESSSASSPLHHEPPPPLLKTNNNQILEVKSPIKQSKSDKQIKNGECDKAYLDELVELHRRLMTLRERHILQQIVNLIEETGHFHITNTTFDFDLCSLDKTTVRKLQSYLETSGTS
Ecoli rRNA inh OD600 = further read-out of Ecoli rRNA inh, marked with its call; OD600 change, %; measured here: OD600 growth;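 optical density of the mix in the first replicate; 0 = DMSO median and -100 = no signal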
Ecoli rRNA inh RFP = second read-out of Ecoli rRNA inh, no call of its own (marks repeat the call); RFP signal change, %; measured here: RFP humanized mutant strains;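 first replicate; 0 = DMSO median and -100 = no signal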
The depositor's hits bear a star; i = inactive; u = inconclusive; x = not tested or not shown; + = active, no number. Some of the compounds tested (hit frequency here may not be typical).

SMILES | Ecoli rRNA inh | Ecoli growth | Ecoli rRNA inh OD600 | ALR H2O2 inh | Vif TR-FRET | FGF22 binding | HNF4A DNA FP | MLL AF4-AF9 inh | Ecoli rRNA inh RFP
Cc1cccc(-c2noc(CCC(=O)NC3CCCCC3)n2)c1 | -1 | 0.72 | 6 | -3 | -6% | i | 6.1 | -8.9 | 2.7
COc1ccccc1NC(=O)N(C)C[C@H]1Oc2ncc(C#CC(C)C)cc2C(=O)N([C@H](C)CO)C[C@@H]1C | -2 | x | -3 | x | x | i | x | 0.5 | 2.7
Cc1ccc(C(=O)OCC(=O)NCCC2=CCCCC2)s1 | 0 | 0.62 | -9 | 1 | 6% | i | -1.7 | -2.9 | -4.3
COC12CC(=O)C(C(C)=O)=C(O)C1(C)c1c(O)c(C)c(O)c(C(C)=O)c1O2 (centres undefined) | 11 | x | -2 | x | x | + | 65* | -0.8 | 14
c1ccc(CN2CCN(c3nc(-c4ccccc4)nc(-n4ccnc4)n3)CC2)cc1 | x | 0.73 | x | -7 | -2% | x | -0.5 | x | x
C[C@@H]1CN([C@H](C)CO)S(=O)(=O)c2ccc(C3=CCCC3)cc2O[C@@H]1CN(C)Cc1ccccc1F | -1 | x | -13 | x | x | i | x | 4.4 | 1.5
CC(C)=C1CCC(C)CC1=NNC(N)=S (centres undefined) | -5 | 0.66 | -12 | x | 7% | i | 1.6 | 3.1 | 0.2
Fc1ccc(N2CCN(C(=S)NCc3ccco3)CC2)cc1 | 6 | 0.7 | 7 | 42 | 3% | x | -1.4 | 5.1 | 4.1
CCOCCn1c(N2CCN(c3ccc(OC)cc3)CC2)nc2c1c(=O)[nH]c(=O)n2C | 8 | 0.72 | 6 | 55 | -2% | x | -0.7 | x | -0.8
COCC(=O)N1CCCCN2[C@H](C1)[C@@H](c1ccc(-c3cccc(C)c3)cc1)[C@@H]2CO | 0 | x | 0 | x | x | i | x | -8.0 | 3.9
CC(C)NC(=O)NCC[C@H]1CC[C@H](NC(=O)c2ccc(F)cc2)[C@H](CO)O1 | -2 | x | 3 | x | x | i | x | 7.0 | -0.6
CS(=O)(=O)N(Cc1ccc(Cl)cc1)c1ccc(C(=O)NCC2CCCO2)cc1 (centres undefined) | 1 | 0.7 | 5 | -14 | 5% | i | -0.9 | -0.3 | -1.0
COc1cccc(CNC(=O)CNC(=O)N2CC(=O)Nc3ccccc32)c1 | 7 | 0.69 | 7 | -36 | x | i | 2.1 | -0.1 | -1.1
COc1ccc(Nc2cc(Cl)nc(N)n2)cc1OC | -6 | 0.69 | -5 | 21 | 0% | x | -1.1 | 0.5 | 0.0
Cc1ccc(C(=O)OCC(=O)Nc2ccc(F)c(Cl)c2)o1 | 5 | x | 10 | x | x | i | -4.0 | 3.5 | -1.3
COc1ccccc1C(=O)NCC(=O)N1CCN(C/C=C/c2ccccc2)CC1 | x | 0.69 | x | -6 | x | i | 1.8 | 1.8 | x
COCC(=O)Nc1ccc2c(c1)OC[C@H](C)N(Cc1cccnc1)C[C@@H](C)[C@@H](OC)CN(C)C2=O | 1 | x | -3 | x | x | i | x | -0.9 | -2.2
CCn1c(N2CCN(S(=O)(=O)c3ccc(Cl)cc3)CC2)nc2ccccc21 | x | 0.7 | x | -112 | 13% | i | 3.1 | -0.6 | x
CCCCN(CCCC)CCNC(=O)CNC(=O)c1cccs1 | x | 0.67 | x | -6 | 0% | x | -0.7 | x | x
CNC(=O)c1cc2cc(OC)ccc2oc1=O | x | 0.74 | x | 0 | -5% | i | 1.4 | -1.0 | x

Exported with values under each structure: 4 of the compounds above.
Order of values: Ecoli rRNA inh	Ecoli growth	Ecoli rRNA inh OD600	ALR H2O2 inh	Vif TR-FRET	FGF22 binding	HNF4A DNA FP	MLL AF4-AF9 inh	Ecoli rRNA inh RFP
- Cc1ccc(C(=O)OCC(=O)Nc2ccc(F)c(Cl)c2)o1
    5	x	10	x	x	i	-4.0	3.5	-1.3
- COc1ccccc1C(=O)NCC(=O)N1CCN(C/C=C/c2ccccc2)CC1
    x	0.69	x	-6	x	i	1.8	1.8	x
- COc1ccc(Nc2cc(Cl)nc(N)n2)cc1OC
    -6	0.69	-5	21	0%	x	-1.1	0.5	0.0
- Cc1cccc(-c2noc(CCC(=O)NC3CCCCC3)n2)c1
    -1	0.72	6	-3	-6%	i	6.1	-8.9	2.7

Going on with the list.
SMILES | Ecoli rRNA inh | Ecoli growth | Ecoli rRNA inh OD600 | ALR H2O2 inh | Vif TR-FRET | FGF22 binding | HNF4A DNA FP | MLL AF4-AF9 inh | Ecoli rRNA inh RFP
Cc1ccnc(-n2c(C)cc(C=O)c2C)c1 | 5 | 0.64 | 10 | -17 | u | i | -0.1 | -2.2 | 3.0
O=C(NCc1cccs1)C1CCN(C(=O)NCc2ccccc2)CC1 | x | 0.67 | x | 3 | -7% | x | -1.3 | x | x
O=C(Nc1ccc(Cl)cc1)N1C[C@@H]2[C@H](c3ccccc31)[C@H](CO)N2C(=O)C1CC1 | -36 | x | -50 | x | x | + | x | -0.6 | -4.8
Cc1ccnc(NC(=O)Nc2ccc3c(c2)OCO3)c1 | 9 | 0.7 | -6 | -7 | -1% | i | -0.4 | -2.1 | 3.7
CC(C)(C)c1ccc(C(=O)NC(=O)COC(=O)c2ccc(Br)o2)cc1 | 6 | 0.69 | 20 | -1 | -6% | i | -0.1 | -0.1 | 0.2
COc1ccc(/C=C/C(=O)N2CCN(S(=O)(=O)c3ccccc3Br)CC2)cc1OC | -18 | 0.67 | -24 | -6 | x | i | 1.4 | 9.6 | 0.9
O=[N+]([O-])c1ccc2c(c1)nc1n2CCN(CC2CCCO2)C1 (centres undefined) | -4 | 0.71 | -1 | x | 14% | i | -2.8 | 1.0 | -1.5
O=C(Nc1ccc(N2CCOCC2)nc1)c1ccccc1Cl | -3 | 0.62 | 2 | 13 | 13% | i | -3.6 | 0.2 | -3.4
CNC[C@@H]1Oc2c(NS(=O)(=O)c3ccc(C)cc3)cccc2C(=O)N([C@H](C)CO)C[C@@H]1C | 7 | x | 6 | x | x | i | x | -0.4 | -0.2
CCOC(=O)Cn1cnc2c(C#N)c3n(c2c1=O)CCCCC3 | x | 0.76 | x | x | 3% | x | -1.5 | x | x
CC(C)C#Cc1ccc([C@H]2[C@@H](CO)N3CCCCN(CC4CC4)C[C@H]23)cc1 | 6 | x | 17 | x | x | i | x | 10 | 3.0
COc1ccc(S(=O)(=O)N2C[C@H](O)COC[C@@H]3O[C@@H](CC(=O)NCCCN4CCOCC4)CC[C@H]32)cc1 | 1 | x | 1 | x | x | i | x | -3.1 | -2.8
C[C@@H]1CCCCO[C@H](CN(C)Cc2ccc(C(=O)O)cc2)[C@H](C)CN([C@H](C)CO)C(=O)c2cc(NC(=O)CCC(F)(F)F)ccc2O1 | 1 | x | -2 | x | x | i | x | -0.6 | 0.5
CC(C)Cc1ccc(S(=O)(=O)Nc2ccc3[nH]c(=O)[nH]c3c2)cc1 | -25* | 0.7 | -20* | -15 | 1% | i | -0.3 | -0.3 | 2.4*
COC(=O)c1ccc(CNC(=O)Cn2nnnc2CN(C)C(C)C)cc1 | 19 | 0.68 | 16 | 1 | -5% | i | -2.1 | -1.6 | 2.6
C[C@@H]1CN([C@H](C)CO)C(=O)Cc2cc(NS(=O)(=O)c3ccc(F)cc3)ccc2O[C@H]1CN(C)S(=O)(=O)c1ccccc1 | -3 | x | -1 | x | x | i | x | -3.7 | 2.0
O=C(Oc1cccc2ccccc12)c1ccncc1 | x | 0.66 | x | -10 | -1% | x | -0.5 | x | x
O=C1NC2(C=Cc3c(ccc4ccccc34)O2)Oc2ccccc21 (centres undefined) | x | 0.67 | x | -21 | 4% | x | -0.1 | x | x
CCC(=O)Nc1ccc2c(c1)OC[C@H](C)N(Cc1ccccc1F)C[C@H](C)[C@H](OC)CN(C)C2=O | -4 | x | -6 | x | x | i | x | 7.0 | 0.5
CCOC(=O)N1CCN(c2c(NCC3CCN(Cc4cccc(C)c4)CC3)c(=O)c2=O)CC1 | 12 | 0.75 | 13 | -10 | 28% | i | 12 | 1.3 | 1.5
Cc1cnn(C(=S)NCc2ccc(Cl)cc2)c1 | x | 0.68 | x | 0 | u | x | x | x | x
CC(C)OC(=O)/C(=C/c1ccc2c(c1)c1ccccc1n2C)NC(=O)c1ccccc1 | x | 0.74 | x | -8 | x | x | 1.4 | x | x
CC(C)(C)c1ccc(Oc2ccc(NC(=O)c3cccs3)cn2)cc1 | -5 | 0.72 | -55 | -2 | 11% | i | -8.4 | -0.5 | 0.3
O=C(c1cccc(F)c1)N1CC(=O)N2[C@@H](CO)[C@H](c3ccc(/C=C/c4ccccc4)cc3)[C@@H]2C1 | 4 | x | -15 | x | x | i | x | 8.6 | 3.5
CCS(=O)(=O)N1CCC(C(=O)Oc2ccccc2)CC1 | 14 | 0.66 | 16 | -9 | x | i | 1.1 | 0.9 | 0.7
CC(Sc1nnc2ccccn12)C(=O)Nc1ccc2c(c1)OCO2 (centres undefined) | 16 | 0.68 | 13 | -26 | x | i | 1.1 | 4.4 | 0.7
C[C@@H]1CN([C@@H](C)CO)C(=O)c2cc(-c3ccc(C#N)cc3)cnc2O[C@@H]1CN(C)C(=O)CC1CC1 | 4 | x | 1 | x | x | i | x | -3.1 | -2.0
CCOC(=O)c1sc(NC(=O)Nc2ccccc2Cl)cc1C | x | 0.7 | x | 27 | -7% | x | -0.8 | x | x
CC(C)(C)NC(=O)C(c1cccnc1)N(C(=O)c1csnn1)c1ccccc1 (centres undefined) | 6 | 0.67 | 7 | -11 | 3% | i | -0.5 | -1.3 | -1.7
CN(C)c1ccc(C(CNC(=O)c2ccccc2F)c2c[nH]c3ccccc23)cc1 (centres undefined) | -13 | 0.75 | -10 | 18 | x | i | -2.6 | 7.4 | -0.8
Cc1occc1C(=O)NC1CCCCCCC1 | x | 0.64 | x | 2 | -6% | x | -3.0 | x | x
COc1ccccc1NC(=O)NC1(C(=O)N2CCC(C)CC2)CCCCC1 | -2 | 0.67 | -1 | 16 | x | i | -1.5 | -0.5 | -1.3
COc1cccc(/C(O)=C2/C(=O)C(=O)N(CCN3CCOCC3)C2c2cccs2)c1 (centres undefined) | x | 0.68 | x | 15 | 2% | x | 0.8 | x | x
CCC1CCCCN1C(=S)Nc1ccc(OC(F)F)cc1 (centres undefined) | x | 0.68 | x | 8 | x | i | -0.4 | 0.9 | x
COc1ccccc1C(=O)COC(=O)CCCN=C1NS(=O)(=O)c2ccccc21 | 3 | 0.7 | 7 | -2 | 2% | i | 4.9 | -7.0 | -0.1
CCOC(=O)c1cnc2c(Cl)c(Cl)ccc2c1NCCN1CCOCC1 | 10 | 0.67 | 10 | -16 | -37% | i | 1.7 | -9.4 | 1.0
CCCNC(=O)C[C@@H]1C[C@@H]2c3cc(NC(=O)C4CCOCC4)ccc3O[C@@H]2[C@H](CO)O1 | 3 | x | -3 | x | x | i | x | -2.8 | 0.9
NC(=O)C1CC(=O)N(CCc2ccc(F)cc2)C1 (centres undefined) | 7 | 0.67 | 13 | -5 | x | i | -2.8 | -5.1 | -2.1
c1ccc(Oc2nc(Oc3ccccc3)nc(N3CCOCC3)n2)cc1 | x | 0.78 | x | x | u | x | -1.0 | x | x
Cc1ccc(N(CC(=O)NCc2ccc(F)cc2)S(=O)(=O)c2c(C)nn(C)c2C)cc1 | 3 | 0.71 | 6 | 1 | x | i | 0.3 | -2.5 | 0.7
C/C=C/c1ccc([C@H]2[C@H](CO)N3CCCCN(C(=O)Nc4cc(F)ccc4F)C[C@@H]23)cc1 | -12 | x | -8 | x | x | i | x | 13 | 3.8
CC(C)CCNC(=O)c1cc([N+](=O)[O-])ccc1N1CCOCC1 | x | 0.7 | x | 7 | 12% | x | -0.3 | x | x

High-throughput results: PubChem BioAssay, several laboratories
